High-throughput results: PubChem, Southern Research Institute
Mtb growth: Mycobacterium tuberculosis H37Rv growth inhibition, cell based, confirmatory dose response (AID 1949) | inhibition, % at 10 µg/mL; hits with a dose series show IC50 in µg/mL | M. tuberculosis H37Rv growth inhibition | most inactive calls were filed without a number and no value below 0 was filed | 1.6% of 100,000 active;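 active = confirmed in a dose series; inconclusive = about 50% or more but not retested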;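 note: bacteria grown 7 days with compound before Alamar blue readout; 0% = untreated bacteria and 100% = reference antibiotic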
* hit, by the source's call; i = inactive; ? = inconclusive. This is a subset; count on the stated rates, not on these rows.

Preview, 3 compounds:
SMILES | Mtb growth
CCCc1ccc(OCc2ccc(C(=O)Nc3ccc(NC(C)=O)cc3)cc2)cc1 | i
NC(=O)c1ccccc1NC(=O)Nc1ccc(F)cc1F | i
O=c1c(Cl)c(O)cnn1-c1cccc(C(F)(F)F)c1 | i

The list itself, previewed entries included:
SMILES | Mtb growth
CCCc1ccc(OCc2ccc(C(=O)Nc3ccc(NC(C)=O)cc3)cc2)cc1 | i
NC(=O)c1ccccc1NC(=O)Nc1ccc(F)cc1F | i
O=c1c(Cl)c(O)cnn1-c1cccc(C(F)(F)F)c1 | i
COc1cc(SC)ccc1C(=O)Nc1ccc(S(=O)(=O)NCCc2ccccc2)cc1 | i
CC1=CC(c2ccccc2)n2nc(NS(=O)(=O)c3ccc(C)cc3)nc2N1 (centres undefined) | i
Cc1ccc(S(=O)(=O)N2CCN(C)CC2)cc1C(N)=O | i
Cc1cc(Br)ccc1OCC(=O)N1CCc2ccccc21 | i
CC(C)(C)c1ccc(C(=O)NC(=S)Nc2cccc(C(=O)O)c2)cc1 | i
CCOC(=O)C1CCN(C(=O)CN(c2ccccc2OC)S(C)(=O)=O)CC1 | i
COc1ccccc1NS(=O)(=O)c1cccc(C)c1 | 5%
CCOc1ccc(N2C(=O)CC(Nc3ccccc3O)C2=O)cc1 (centres undefined) | 4.6µg/mL*
CCOC(=O)c1ccc(Nc2nnc(-c3cc4ccccc4oc3=O)s2)cc1 | i
COc1ccc(C(=O)NC(Oc2ccc(Cl)cc2)C(Cl)(Cl)Cl)cc1OC (centres undefined) | 1%
O=C(NC(=S)Nc1ccccc1C(=O)Nc1ccccc1)c1cccs1 | i
COc1ccc(C)cc1S(=O)(=O)N(C)CC(=O)N1CCCC1 | i
Fc1cccc(Cl)c1CNCc1ccncc1 | i
Cc1ccc(C)c(OCC(=O)Nc2ccc3c(c2)C(=O)NC3=O)c1 | i
O=C(O)COc1ccc2c(c1)OCCO2 | i
CC(C)(C)C(=O)Nc1ccc2nn(-c3ccccc3)nc2c1 | 3%
CCNC(=S)N1CCN(CC(=O)Nc2ccc(Br)cc2)CC1 | i
CCCCSC1CC(=O)N(c2ccc(N3C(=O)CC(SCCCC)C3=O)cc2)C1=O (centres undefined) | i
Cc1ccc(S(=O)(=O)N(C)Cc2nc(-c3ccncc3)no2)cc1 | 1%
CCC(C)c1ccc(OCC(=O)Nc2cccc(C(C)=O)c2)cc1 (centres undefined) | i
CCOC(=O)COc1ccc(S(=O)(=O)N2CCOCC2)cc1 | i
O=S(=O)(c1ccc(-c2ccc(Cl)cc2)cc1)N1CCN(c2ccccc2)CC1 | i
COc1ccc(C)cc1N(CC(=O)N1CCC(Cc2ccccc2)CC1)S(C)(=O)=O | i
CCOC(=O)c1nn(-c2ccc(OC)cc2)c(=O)c2c(N)scc12 | i
COc1ccc(Nc2nc(NCCCC(C)C)nc(OC)n2)c(OC)c1 | 1%
COc1ccc(C)cc1N(CC(=O)Nc1cccc(SC)c1)S(C)(=O)=O | 1%
COc1ccc2c(=O)c(-c3ccc(Br)cc3)c(C)oc2c1 | i
CNS(=O)(=O)c1cc(-c2nnc(Nc3ccc(CC(N)=O)cc3)c3ccccc23)ccc1C | i
OCCNc1nc(N2CCN(Cc3ccccc3)CC2)nc2ccccc12 | 1%
Cc1c(-c2ccccc2)nc2ccccc2c1C(=O)OC(C)C(=O)c1ccccc1 (centres undefined) | i
COc1ccc(C(=O)NCc2nnc(SCC(=O)c3ccc(Br)cc3)n2C)cc1OC | i
Cc1ccc(S(=O)(=O)N2CCOCC2)c(C)c1-n1cnnn1 | i
CCOC(=O)N1CCN(CCC(=O)c2ccc(Cl)cc2)CC1 | 2.5µg/mL*
CCOCCCNc1ncc2c(n1)CC(c1ccco1)CC2=O (centres undefined) | i
CC(C)CN(CC(C)C)C(=O)c1ccccc1Br | i
CC(=O)OC(COc1cccc(Cl)c1)Cn1cnc2cc(C)c(C)cc21 (centres undefined) | i
Cc1cc(C)cc(C(=O)NC(=S)Nc2cc(C(F)(F)F)ccc2N2CCOCC2)c1 | i
Cc1c(C)c2ccc(OC(=O)c3cccs3)cc2oc1=O | i
COc1cccc(OC)c1C(=O)Nc1cc(C)on1 | i
COc1ccc(Cl)cc1C(=O)NCc1ccco1 | i
COC(=O)c1c(NC(=O)c2ccncc2)sc2c1CCC2 | i
O=C(CNS(=O)(=O)c1ccccc1)N1CCN(C(c2ccccc2)c2ccccc2)CC1 | i
CC(=O)c1ccc(N2C(=O)C(C(C)C)NC2=S)cc1 (centres undefined) | i
CCn1c(Sc2ccc(C=O)o2)nnc1-c1ccc(Cl)cc1 | i
CC(=O)Oc1c(-c2ccco2)oc2ccccc2c1=O | ?

In a second layout: results already given.
COc1cccc(OC)c1C(=O)Nc1cc(C)on1
  Mtb growth = i
COc1ccc(Cl)cc1C(=O)NCc1ccco1
  Mtb growth = i
COC(=O)c1c(NC(=O)c2ccncc2)sc2c1CCC2
  Mtb growth = i
O=C(CNS(=O)(=O)c1ccccc1)N1CCN(C(c2ccccc2)c2ccccc2)CC1
  Mtb growth = i

Continuation.
SMILES | Mtb growth
CCOc1ccc(NS(=O)(=O)c2ccc(NC(=O)COc3cccc4ccccc34)cc2)cc1 | i
Cc1cccn2c(=O)c(NC(=O)c3cccs3)cnc12 | i
CCOC(=O)CCc1c(C)c2cc(Cl)c(OCC(=O)c3cccc([N+](=O)[O-])c3)cc2oc1=O | i
CCOc1ccccc1N(CC(=O)Nc1ccccc1C(=O)OC)S(C)(=O)=O | i
COC(=O)c1ccccc1NC(=O)CN(c1ccc(OC)cc1)S(=O)(=O)c1ccc(C)c([N+](=O)[O-])c1 | i
Cc1ccc(C(=O)Nc2c(C)cccc2C(C)C)o1 | i
Cc1sc(NC(=O)CSC2=NCCS2)nc1-c1ccccc1 | 1%
COC(=O)c1c(NC(=O)Cc2cccs2)sc(C)c1C | i
COc1ccc(-n2cccc2/C=C2\C(=O)NC(=S)N(c3ccc(Br)cc3)C2=O)cc1 | i
C=CCNC(=O)c1ccccc1NC(=O)c1cc(OC)cc(OC)c1 | i
O=C(Nc1ccc(N2CCOCC2)c2nonc12)c1cccs1 | i
O=C(Nc1nccs1)c1cn(-c2ccccc2)nc1-c1ccc(Br)cc1 | 0%
O=C(NNC(=S)NCC1CCCO1)c1cc(-c2ccc(Cl)cc2Cl)nc2ccccc12 (centres undefined) | i
CCOc1ccc(NC(=O)c2c(NC(=O)CN(C)C)sc3c2CCC3)cc1 | i
Cc1ccccc1CN(c1ccc(C(=O)NC2CCCCC2)cc1)S(C)(=O)=O | i
COc1ccc(C(=O)Nc2cccc(NC(=O)c3ccco3)c2)cc1Br | i
CCCOc1ccc(N2CC(C(=O)Nc3ccc(CC)cc3)CC2=O)cc1 (centres undefined) | i
COc1ccccc1OCC(=O)O/N=C(\N)c1ccc(C)cc1 | i
Cc1nnc(N/N=C/c2ccccc2OCc2ccccc2)[nH]c1=O | 4%
Cc1c(=O)n(OCc2ccccc2Br)c2ccccc2[n+]1[O-] | i
COc1ccc(C2CC(=O)C3=C(C2)NC(C)=C(C(=O)Nc2ccc(C)cc2)C3c2ccc([N+](=O)[O-])cc2)cc1OC (centres undefined) | 19%
CC1=C(C(=O)O)N2C(=O)C(NC(=O)Cc3ccccc3)C2SC1 (centres undefined) | i
CCN(C(=O)Cc1ccc(C)cc1)c1ccccc1 | i
CCN(CC)S(=O)(=O)c1ccc(NC(=O)C2CC2)cc1 | i
CC(=O)c1cccc(NC(=O)C(C)Sc2ccc(C)cc2)c1 (centres undefined) | 1%
CCN(CC)CCOc1c(Br)ccc2c1sc1nc3n(c(=O)c12)CCC3 | 2%
COc1ccc(CN(C(=O)Nc2ccc(Cl)cc2)C2CC(=O)N(c3ccc(OC)cc3)C2=O)cc1 (centres undefined) | i
O=C(Nc1nc2ccc(Br)cc2s1)c1ccco1 | 3%
CCOC(=O)c1ccc(NC(=S)NCCc2cnc[nH]2)cc1 | i
O=C1CN(Cc2ccccc2)CC(=O)N1 | i
CCCNC(=O)CN(C1CCCCC1)S(=O)(=O)c1ccccc1 | i
CC(=O)c1cccc(NC(=S)N2CCN(c3ncccn3)CC2)c1 | i
CCOC(=O)CSc1nc2c(c(=O)n(C)c(=O)n2C)n1Cc1ccccc1C | i
Cc1ccc(C(=O)NC(=S)Nc2ccc(C(=O)O)cc2)c(Cl)c1 | i
O=C(Nc1ccc(F)cc1)N1CCCCCC1 | i
Cc1sc2ncnc(N3CCN(Cc4ccc5c(c4)OCO5)CC3)c2c1C | i
CN(C)c1nc(Oc2ccc(OCc3ccccc3)nn2)nc(N(C)C)n1 | i
O=C(COc1ccc(C(=S)N2CCCC2)cc1)Nc1ccccc1C(F)(F)F | i
O=C(NCc1cccc(Cl)c1)c1ccco1 | i
O=C(C(=O)N1CCOCC1)c1cn(Cc2c(F)cccc2Cl)c2ccccc12 | i
Cc1ccc(S(=O)(=O)c2nc(S(C)(=O)=O)sc2NCC2CCCO2)cc1 (centres undefined) | i
Cc1ccc(S(=O)(=O)NC(C)C(=O)Nc2cc(C(F)(F)F)ccc2Cl)cc1 (centres undefined) | i
COc1ccc(N2CCN(C(=O)c3ccc(COc4ccc5c(c4)CCC5)cc3)CC2)cc1 | i
O=c1oc(-c2ccccc2F)nc2ccccc12 | i
Cc1ccc(Cl)c(OCCOCCN(C)C)c1 | i
COc1ccc(Br)cc1C(=O)NC(=S)Nc1ccc(N2CCN(S(C)(=O)=O)CC2)cc1 | ?
O=C(NCCCN1CCOCC1)c1ccc(Br)s1 | i
Cn1nnc(NC(=O)c2ccc(Cl)cc2)n1 | i
COC(=O)c1cc(NC(=S)N2CCC(O)CC2)cc(C(=O)OC)c1 | i
O=C(NCc1ccc2c(c1)OCO2)c1ccc(S(=O)(=O)N2CCOCC2)cc1 | 1%
O=C(CSCc1ccccc1)NCCc1ccc(F)cc1 | i
COc1cc(OC)cc(C(=O)NCCc2cccc(Cl)c2)c1 | i
N#C/C(=C\c1ccsc1)S(=O)(=O)c1ccccc1 | i
O=C(NC(=S)Nc1nc(-c2ccc3ccccc3c2)cs1)c1ccc(F)cc1 | i
CCOC(=O)c1ccccc1NC(=O)c1ccc(N(Cc2ccc(C)cc2)S(C)(=O)=O)cc1 | i
CCN1C(=O)c2ccc(-c3nc4cc(Cl)ccc4c(=O)o3)cc2C1=O | ?
OCc1cc(Cl)ccc1OCc1cccc(Cl)c1 | 5%
CCC(=O)c1ccc(OCCn2cnc3ccccc32)cc1 | i
COc1ccc(C(=O)N2CCN(C(=O)c3cc(OC)cc(OC)c3)CC2)cc1 | i
O=C(O)Cn1nnc(-c2ccc(F)cc2)n1 | i
The list continues:
SMILES | Mtb growth
S=C(Nc1ccc2snnc2c1)N1CCN(c2ccccc2)CC1 | i
COc1cc(NS(=O)(=O)c2ccc(NC(=O)c3ccccc3Oc3ccccc3)cc2)ncn1 | i
CC(C)C(=O)Nc1cccc(NC(=O)c2cccc(F)c2)c1 | i
Cc1c(-c2ccccc2)nc2ccccc2c1C(=O)Oc1ccc([N+](=O)[O-])cc1 | i
NS(=O)(=O)c1ccc(CCNC(=O)c2ccccc2Oc2ccccc2)cc1 | 0%
CCN(CC)c1ccc(C2C3=C(CC(c4ccc(OC)cc4)CC3=O)Nc3ccccc3N2C(C)=O)cc1 (centres undefined) | i
CCOc1ccccc1NC(=O)NCCc1ccc(OC)cc1 | i
CCC(C)NC(=O)c1ccccc1NC(=O)C(C)N(c1ccc(OC)cc1)S(C)(=O)=O (centres undefined) | i
Cc1onc(-c2c(F)cccc2Cl)c1C(=O)Nc1ccc(Cl)cc1 | 6%
O=C(Nc1ccccc1-c1nc2ccccc2[nH]1)c1ccc(S(=O)(=O)N2CCCCC2)cc1 | i
COc1cc(-c2cc(C(=O)O)c3cc(Br)ccc3n2)cc(OC)c1OC | i
COc1ccc2c3c1C(=O)C(=O)N3C(C)(C)C=C2C | i

Single values from above:
Mtb growth result of `O=C(NCc1ccc2c(c1)OCO2)c1ccc(S(=O)(=O)N2CCOCC2)cc1` reads 1%
Mtb growth result of `CCOC(=O)N1CCN(CCC(=O)c2ccc(Cl)cc2)CC1` reads 2.5µg/mL*

Additional entries:
SMILES | Mtb growth
Cc1cc(C)c(S(=O)(=O)N2CCC(C(=O)O)CC2)c(C)c1 | i
CC(=O)Oc1ccc(-c2csc(NCc3ccccc3)n2)cc1 | i
CCOC(=O)c1c(-c2cccs2)csc1NC(=O)c1cccs1 | i
COC(=O)CNC(=O)c1cc2cc(Cl)ccc2oc1=O | 43%
COc1ccc(Cl)cc1NC(=S)Nc1ccn(Cc2ccc(Cl)cc2Cl)n1 | i
CCn1c(CC(=O)Nc2ccc(C)cc2)nnc1SCC(=O)Nc1nc2ccccc2s1 | 4%
NC(=O)CN1CCN(C2CC(=O)N(CCc3ccccc3)C2=O)CC1 (centres undefined) | i
Cc1nn(C(=O)CCCC(=O)n2nc(C)c(Cl)c2C)c(C)c1Cl | i
CCC(C(=O)NCCO)c1ccccc1 (centres undefined) | 2%
Cn1c(=O)c2c(ncn2CCN)n(C)c1=O | i
C=CCc1cc(C)ccc1OCCn1cnc2ccccc2c1=O | 0%
COc1cc(N2CCN(S(=O)(=O)c3ccc4ccccc4c3)CC2)ccc1[N+](=O)[O-] | i
Cc1c(C)n(CC(O)CNCc2ccccc2)c2ccccc12 (centres undefined) | ?
O=C(c1cc(-c2ccc(Cl)s2)nc2ccccc12)N1CCN(c2ccccc2)CC1 | i
Cn1cc(I)c(C(=O)NNC(=S)NCc2ccco2)n1 | i
O=C(O)C1CCN(C(=O)c2ccc(F)cc2)CC1 | i
COc1ccccc1OCC(=O)Oc1ccccc1[N+](=O)[O-] | i
Cc1cc([N+](=O)[O-])ccc1NC(=S)NC(=O)COc1ccc(Br)cc1Cl | 2%
Cc1ccc(S(=O)(=O)N(C)C(F)F)cc1 | 2%
Cc1cccc(NC(=O)c2ccccc2-c2ccccc2)c1C | 45%

Molecules above containing a tert-butyl group, in the order listed:
SMILES | Mtb growth
CC(C)(C)c1ccc(C(=O)NC(=S)Nc2cccc(C(=O)O)c2)cc1 | i
CC(C)(C)C(=O)Nc1ccc2nn(-c3ccccc3)nc2c1 | 3%
